# miR-21 FLuc: raises the signal of a miR-21 reporter | HeLa miR-21 FLuc reporter, luciferase, 48 h | Potency, µM (doses to about 38.3 µM), for the others: top-dose reporter change, positive = more light | 340,000 tested, under 10 active; active = well fitted rising curve with a large enough effect; inconclusive = small, poorly fitted or top-dose-only effect; inactive = no such curve, though single readings can be large or run the other way;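 note: % of control where 0% means no effect; miR-21 action dims this reporter so a rising signal means less miR-21 action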
#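 Luminescence from a firefly luciferase reporter carrying a miR-21 binding site downstream, stably expressed under a CMV promoter in HeLa cells that make miR-21 endogenously, reports miRNA modulation after 48 h compound exposure up to approximately 40uM final.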
# GLA inh pH 4.5: alpha-galactosidase A (human) inhibition, pH 4.5; activity change, negative = inhibition, % at 105 µM; purified enzyme, 4-MU-alpha-Gal fluorescence, pH 4.5; 230,000 tested, under 10 active; P06280; inconclusive = small, poorly fitted or top-dose-only inhibition, or a rising curve; inactive = flat fitted curve, though single readings scatter; no compound was filed as active;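 note: 0% = full activity with enzyme and -100% = basal without enzyme; dose as in the result columns while the protocol names 77 µM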
# Rango complex inh: inhibitors of Rango-importin beta complex formation. Rango CFP/YFP FRET sensor + importin beta, 45 min. Q14974. Potency, µM (doses to about 92.2 µM), for inactives: top-dose inhibition of complex formation. 0.031% of 340,000 active. AID 540263; active = rising FRET ratio curve, often small or poorly fitted; inconclusive = mostly compound fluorescence or quenching in the first reads; inactive = flat curves in all reads;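 note: potency is the fitted concentration of half-maximal effect; 0% = DMSO wells and 100% = buffer wells lacking importin beta; nearly all actives have a fitted effect of over 15% in size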
# Target sequence (Q14974 whole entry, looked up): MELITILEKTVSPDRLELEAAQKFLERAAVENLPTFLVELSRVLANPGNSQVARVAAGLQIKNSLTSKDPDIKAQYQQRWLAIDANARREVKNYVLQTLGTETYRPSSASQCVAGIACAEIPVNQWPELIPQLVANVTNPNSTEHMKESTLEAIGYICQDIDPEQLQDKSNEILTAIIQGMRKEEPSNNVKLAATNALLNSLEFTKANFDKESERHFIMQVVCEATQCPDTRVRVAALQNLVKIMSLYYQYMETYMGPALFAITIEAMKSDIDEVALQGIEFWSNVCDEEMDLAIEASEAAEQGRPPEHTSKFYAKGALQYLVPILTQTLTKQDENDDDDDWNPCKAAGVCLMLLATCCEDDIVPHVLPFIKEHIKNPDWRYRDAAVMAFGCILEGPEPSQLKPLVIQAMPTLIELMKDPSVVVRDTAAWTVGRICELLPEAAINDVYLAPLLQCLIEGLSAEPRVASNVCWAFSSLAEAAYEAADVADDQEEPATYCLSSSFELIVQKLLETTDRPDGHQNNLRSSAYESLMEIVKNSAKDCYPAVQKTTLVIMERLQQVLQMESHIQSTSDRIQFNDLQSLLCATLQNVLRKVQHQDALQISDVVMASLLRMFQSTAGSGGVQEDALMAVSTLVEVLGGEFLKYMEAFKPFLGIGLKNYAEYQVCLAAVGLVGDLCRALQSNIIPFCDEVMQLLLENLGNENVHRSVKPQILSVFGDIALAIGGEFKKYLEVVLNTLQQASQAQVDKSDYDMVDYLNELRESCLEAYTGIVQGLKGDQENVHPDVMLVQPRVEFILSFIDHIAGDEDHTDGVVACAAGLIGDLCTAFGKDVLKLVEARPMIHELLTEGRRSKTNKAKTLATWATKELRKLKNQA
#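 Inhibition scored from the CFP 486 nm/YFP 530 nm FRET ratio 45 min after adding 0.125 microM importin beta to 50 nM Rango biosensor preincubated 5 min with compound (room temperature, PBS with DTT, Tween-20, BSA). No-importin wells as positive control.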
# Rango release inh: inhibition of RanGTP-driven Rango-importin beta dissociation | O95149+P62826 | Biochemical FRET Rango-importin beta, RanGTP-induced dissociation | Potency, µM (doses to about 46.1 µM), inactives show at the highest dose activity change, negative = inhibition | 0.071% of 340,000 active | AID 540253; active means falling FRET ratio curve, often poorly fitted, with flat reads before Ran was added; inconclusive means other falling curves, or compound fluorescence or quenching; inactive means flat or rising ratio curve;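 note: potency is the fitted concentration of half-maximal effect; % of control where 0% means no effect; nearly all actives have a fitted effect of over 45% in size; -100% = wells without RanGTP and RCC1; the record marks most hits as doubtful in a second field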
#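 Recombinant Rango FRET biosensor (EYFP–snurportin 1 IBB–cerulean CFP10) at 0.1 uM premixed with 0.25 uM importin beta in PBS, 1 mM DTT, 0.02% Tween-20, 0.1% BSA. Compound added 5 min; RanGTP-RCC1 (0.6 uM Ran, 2 mM GTP, 0.2 uM RCC1) then triggers release, read at 45 min.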
# * = called active by the depositor; ? = inconclusive; nt = no result given; & = joins results of further samples; [ ] = remark or other dose. Only part of the results is shown, so the mix of outcomes need not match the whole.
Rango complex inh	Compound	miR-21 FLuc	GLA inh pH 4.5	Rango release inh
-2.4%	CSc1c(CC(=O)Nc2ccc(F)cc2)n(Cc2ccccc2)c2ccccc12	-4%	-1	5%
-0.3%	O=C(O)c1ccc(NS(=O)(=O)c2ccc(N3C(=O)CCC3=O)cc2)cc1	7%	nt	0%
0.7%	O=C(Cn1c(=O)oc2cc(S(=O)(=O)N3CCCC3)ccc21)N1CCN(c2ccccn2)CC1	-3%	-2	1%
0.5%	NC(=O)COc1ccccc1/C=C1/SC(=O)N(CC(=O)N2CCc3ccccc3C2)C1=O	1%	-22	4%
1.4%	COC(=O)c1cc(S(=O)(=O)NCC2CCN(CCc3ccc(OC)cc3)CC2)cn1C	1%	nt	3%
0.2%	Clc1ccc(SCCOCCN2CCCCCC2)cc1	0%	nt	-7%
-1.4%	O=C(Cc1cccc(NC(=O)C2CCCN(C(=O)c3ccccc3)C2)c1)Nc1cccc(C(=O)N2CCCCC2)c1 (stereo unspecified)	nt	nt	-1%
0.2%	O=C(CNC(=O)c1ccc(Cl)cc1)N/N=C/c1cccnc1	1%	-1	-13%
3.4%	CCOc1ccc(CNC(=O)CCS(=O)(=O)c2ccc3c(c2)NC(=O)CO3)cc1OC	-1%	nt	-9%
0.5%	CCn1c(C)c(C)c2cc(C(=O)NC3CCCCCC3)ccc21	-13%	nt	-11%
5.3%	CN1CCN(C(=O)CCCN2C(=O)/C(=C/c3ccc(Cl)cc3)SC2=S)CC1	nt	nt	9%
0.4%	COc1ccc(S(=O)(=O)Nc2ccc(C)cc2)cc1N(C)S(=O)(=O)c1ccc(Cl)cc1	?	-7	3%
4.3%	Cc1ccc(C(=O)O/N=C(\N)c2ccc(Br)cc2)cc1	-38%	-5	1%
-3.7%	O=C(CCCOc1ccc(Cl)cc1Cl)n1nnc2ccccc21	-3%	-2	12%
3.3%	CCN(CC(=O)Nc1ccc(S(=O)(=O)N2CCCC2)cc1)CC(=O)Nc1ccccc1C(F)(F)F	nt	nt	-4%
-0.2%	CN(C)CC(=O)Nc1ccc2cn[nH]c2c1	1%	3	9%
-7.7%	CC(=O)OCc1cc(-c2nn(C)c(=O)c3ccccc23)ccc1C	4%	6	-2%
-4.6%	C=CCn1c(NC(=O)c2ccc(C)cc2)nc2ccccc21	-32%	nt	20%
2.9%	C[C@@H]1C=C(C(=O)NCc2ccccc2)O[C@H](OCc2ccc(CO)cc2)C1	4%	13	0%
6.1%	Nc1ccc2c(c1)N1CCN=C1S2	-2%	10	-7%
-1.3%	OCCNCCOc1ccccc1-c1ccccc1	-2%	5	6%
-0.2%	COc1ccccc1OCCOCCOc1ccc(C)cc1[N+](=O)[O-]	-24%	-7	-7%
2.1%	Cn1nccc1NS(=O)(=O)c1ccc(C(C)(C)C)cc1	3%	6	5%
-1.2%	CCOc1ccc(NC(=O)C2CCCN2C(=O)OCc2ccccc2)cc1 (stereo unspecified)	2%	-5	-2%
1.3%	NC(=O)C1CCN(S(=O)(=O)c2ccccc2[N+](=O)[O-])CC1	-1%	nt	0%
-2.5%	Cc1nc2n(n1)CC(O)CS2 (stereo unspecified)	-3%	-5	0%
0.2%	O=C(COc1ccc(Br)cc1CO)Nc1ccccc1	-39%	6	11%
0.1%	CCCc1cc(=O)oc2c3c(cc(OCC(=O)NCc4ccccn4)c12)OC(C)(C)CC3	-7%	nt	-9%
0.6%	O=C(C1CCCO1)N1CCN(c2ncccn2)CC1 (stereo unspecified)	-4%	6	?
-1.4%	COc1ccc(C(=O)Nc2ccccn2)cc1S(=O)(=O)N1CCOCC1	1%	nt	-18%
1.0%	CC(C)c1nc(SCC(=O)Nc2ccc(N(C)C)cc2)c2ccccc2n1	?	-1	-23%
2.0%	O=C(CN1CCOCC1)N/N=C/c1ccc(-c2ccc(C(=O)O)cc2)o1	-1%	-4	9%
1.7%	CC(=O)NC(CC(=O)OCC(=O)N1CCN(S(=O)(=O)c2ccc(C)cc2C)CC1)c1ccccc1 (stereo unspecified)	nt	nt	10%
0.0%	O=Cc1ccc(C(=O)OCC(=O)NCCC2=CCCCC2)cc1	nt	nt	-5%
0.1%	COCCn1c(SCC(=O)Nc2ccc(S(=O)(=O)N3CCOCC3)cc2)nc2ccccc21	11%	-3	7%
-0.1%	Cn1ccnc1Sc1ccc(/C=N/NC(=O)c2ccccc2O)cc1[N+](=O)[O-]	-27%	-10	10%
0.3%	O=C(c1ccc2c(c1)OCCO2)N1CCCC(CNS(=O)(=O)c2cccs2)C1 (stereo unspecified)	-1%	-4	5%
0.2%	Cc1ccc(-n2nnnc2SCC(=O)NC(=O)Nc2ccc3c(c2)OCCO3)cc1	-27%	-7	0%
6.0%	COc1ccc(CCNC(=O)c2cc(-c3ccccc3)c(N3CCOCC3)s2)cc1OC	nt	nt	31%
-0.6%	Cc1cccc(CN2CCC(n3nccc3NC(=O)c3ccccc3C)CC2)n1	-8%	nt	-8%
0.5%	O=S(=O)(c1cccs1)N1CCN(c2ccc(O)cc2)CC1	7%	-1	1%
0.1%	O=C(NC(=S)Nc1ccc(Cc2ccncc2)cc1)c1ccc(F)cc1	9%	1	15%
-2.9%	O=C(CSc1cccc[n+]1[O-])C12CC3CC(CC(C3)C1)C2	-8%	-17	3%
1.9%	Cc1oc2c(cc(NS(=O)(=O)c3ccc(C(C)C)cc3)c3ccccc32)c1C(=O)O	-2%&4%	nt	-4%
-1.9%	Cc1ccc(S(=O)(=O)N2CCN(C(=O)c3nn(C(C)C)c(=O)c4ccccc34)CC2)cc1C	3%	-3	1%
-1.7%	O=C(NS(=O)(=O)c1ccc(Cl)s1)c1ccccc1	-1%	nt	-13%
-2.5%	CN(C(=O)COC(=O)c1ccc(=O)n(Cc2ccccc2)n1)C1CCS(=O)(=O)C1 (stereo unspecified)	nt	nt	6%
-3.5%	Cn1c(SCC(=O)NNC(=O)Nc2ccccc2)nnc1-c1ccccc1	6%	-2	-11%
-3.0%	OCC(CBr)(CBr)CBr	nt	nt	8%
-1.1%	O=C(COc1cccc(Br)c1)N/N=C/C(=O)c1ccccc1	-1%	0[21.1 µM]	11%
-0.7%	CCCn1c(N)c(C(=O)CN2CCN(S(=O)(=O)c3cccc(Cl)c3)CC2)c(=O)[nH]c1=O	nt	nt	2%
-0.2%	Cc1ccc(C(C(=O)NCC2CCCO2)N(Cc2ccccc2)C(=O)c2ccc(-c3ccccc3)[nH]2)o1 (stereo unspecified)	19%	-14	3%
2.8%	O=C(COC(=O)/C=C/c1ccc(Cl)cc1)Nc1cccc(S(=O)(=O)NC2=NCCCCC2)c1	nt	nt	14%
-3.9%	N#Cc1ccccc1COC(=O)c1cc(=O)c2ccccc2o1	-6%	nt	13%
3.1%	NC(=O)CC(NC(=O)Cc1cccc2ccccc12)c1ccc(NCCOc2ccccc2)c([N+](=O)[O-])c1 (stereo unspecified)	1%	1	3%
?	CCCCN(C(=O)c1ccc([N+](=O)[O-])o1)c1c(N)n(CC(C)C)c(=O)[nH]c1=O	nt	nt	-29%
-1.2%	COc1cccc(C(C)NC(=O)C2CCCO2)c1 (stereo unspecified)	4%	nt	-9%
0.1%	CCc1ccc(-c2cnc3ccccc3n2)cc1NC(=O)CNC(=O)c1ccccc1	-47%	nt	5%
3.5%	C/C(N)=C(/C#N)C(=O)COC(=O)CSc1ccccc1	-9%	10	-2%
?	O=C(CCN1C(=O)[C@H]2CC=CC[C@H]2C1=O)NCc1nc(-c2ccc(Cl)cc2)no1	0%	nt	-8%

# 4 entries from above, with each value named:
> CN1CCN(C(=O)CCCN2C(=O)/C(=C/c3ccc(Cl)cc3)SC2=S)CC1
- Rango complex inh: 5.3%
- miR-21 FLuc: nt
- GLA inh pH 4.5: nt
- Rango release inh: 9%
> COc1ccc(S(=O)(=O)Nc2ccc(C)cc2)cc1N(C)S(=O)(=O)c1ccc(Cl)cc1
- Rango complex inh: 0.4%
- miR-21 FLuc: ?
- GLA inh pH 4.5: -7
- Rango release inh: 3%
> Cc1ccc(C(=O)O/N=C(\N)c2ccc(Br)cc2)cc1
- Rango complex inh: 4.3%
- miR-21 FLuc: -38%
- GLA inh pH 4.5: -5
- Rango release inh: 1%
> O=C(CCCOc1ccc(Cl)cc1Cl)n1nnc2ccccc21
- Rango complex inh: -3.7%
- miR-21 FLuc: -3%
- GLA inh pH 4.5: -2
- Rango release inh: 12%

# Further results.
Rango complex inh	Compound	miR-21 FLuc	GLA inh pH 4.5	Rango release inh
0.9%	Cc1cccnc1NC(=O)COc1ccc2c(c1)CCC2	nt	nt	1%
-2.1%	O=C(CNS(=O)(=O)c1ccc(Cl)cc1)N/N=C/c1ccco1	1%	2	11%
0.3%	O=C(O)CSC1CC(=O)N(c2ccc(Cl)c(Cl)c2)C1=O (stereo unspecified)	-4%	4	-13%
2.2%	Cc1nn(Cc2cccc(Oc3ccccc3)c2)c(C)c1NC(=O)NC12CC3CC(CC(C3)C1)C2	-3%	-4	-7%
-0.1%	CC(C)(CNC(=O)Cc1ccc(Cl)cc1Cl)N1CCOCC1	-2%	nt	1%
-1.6%	CNc1cc(N2CCN(S(=O)(=O)N(C)C)CC2)ccc1[N+](=O)[O-]	4%	-1	-1%
?	COc1ccc(-c2cc(-c3ccc(Cl)cc3)c(C#N)c(SCC(=O)O)n2)cc1	-3%	nt	-4%
6.8%	CCOC(=O)c1c(-c2ccc(-c3ccccc3)cc2)csc1NC(=O)CNCCN(C)C	?	nt	2%
0.1%	O=C(CCc1cn2ccccc2n1)NC1CCCc2c1cnn2-c1ccccc1F (stereo unspecified)	-1%	nt	5%
0.2%	Cc1nc2ccccc2c2oc(C(=O)N3CCc4ccccc4C3)cc12	28%	1	9%
0.0%	CCN(C(=O)c1cc2ccccc2oc1=O)c1ccccc1	-67%	-1	4%
-0.1%	O=C(Nc1ccc(F)c(Cl)c1)C1CCCCC1	nt	nt	1%
5.6%	O=C1CN(S(=O)(=O)c2cc(Br)ccc2Br)CCN1	nt	nt	-1%
-0.9%	Cc1nc2ccccc2cc1C(=O)N(C)Cc1ccccc1	-3%	nt	-12%
-1.6%	CC1(c2ccccc2)NC(=O)N(CC(=O)Nc2cc(S(=O)(=O)N3CCOCC3)ccc2Cl)C1=O (stereo unspecified)	-2%	-1	1%
-2.4%	O=S(=O)(Nc1nc2c(s1)CCCC2)c1ccc(F)cc1	-20%	-2	-2%
5.0%	Cc1cc(C)n(C(C)CC(=O)N2CCc3ccccc32)n1 (stereo unspecified)	0%	nt	0%
7.5%	CCOC(=O)C1CCCN(C(=O)c2ccc3nc(-c4cccc(OC)c4)oc3c2)C1 (stereo unspecified)	-9%	nt	8%
2.2%	O=C(Nc1ccccc1)N1N=CCC1c1ccccc1 (stereo unspecified)	-1%	2	4%
-1.3%	CCc1ccccc1N(CC(=O)NC1CCCCC1)C(=O)CCC(=O)Nc1ccccn1	1%	nt	-8%
0.6%	CC(/C=N/NC(=O)c1cc(-c2ccc(C)o2)[nH]n1)=C\c1ccccc1	-6%	-3	6%
-1.2%	CCOC(=O)C1=C(C)Nc2nnnn2C1c1ccc(OC)c(Br)c1 (stereo unspecified)	-17%	6	24%
5.7%	CC(C)CCOc1ccc(C2(C)NC(=O)N(CN3CCOCC3)C2=O)cc1 (stereo unspecified)	-13%	-6	1%
-2.0%	O=C1CC(N2CCC(c3nc4ccccc4s3)CC2)C(=O)N1Cc1ccccc1 (stereo unspecified)	6%	2	0%
-2.1%	COc1ccc(-c2nc(=S)[nH][nH]2)cc1OC	4%	14	2%
-1.4%	O=S(=O)(NCCc1csc(-c2cccnc2)n1)c1ccc(Cl)s1	11%	-2	-8%
-0.1%	CCCCN(CC)CCCNC(=O)c1cc2c(-c3ccc(OC)c(OC)c3)nn(C)c2s1	-13%&-29%	nt	0%
-0.2%	O=c1c([N+](=O)[O-])cccn1Cc1cccc(Cl)c1	3%	-5	0%
7.6%	Oc1ccccc1/C=N/NC(=S)NCCc1ccccc1	-11%	nt	-11%
3.0%	CCOc1ccc(Nc2nc(N)nc(CN3CCN(c4ccccc4F)CC3)n2)cc1	19%	-2	15%
-2.4%	Cc1cc(S(=O)(=O)NC2CCCCC2)ccc1OCC(=O)NCc1ccccn1	-12%	-3	7%
-0.1%	O=[N+]([O-])/C=C\c1ccc(N2CCCC2)c(F)c1	?	5	9%
